Screening results as filed in PubChem BioAssay.
Env fusion inh – blocks HIV Env-driven cell-cell fusion; 1.1% of 360,000 active; AID 651610; HeLa-JRFL Env/CEM21 cell fusion, luciferase; inhibition, % at 12.3 µM;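 active = mean replicate inhibition score of at least 50 and every replicate individually at or above 50; inconclusive = only one of the two criteria met; inactive = mean below 50 and not all replicates reaching 50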;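 note: 0% = plate neutral controls and 100% = maraviroc near 300 nM; one replicate is shown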
eIF4H FP inh – inhibitors of RNA binding by human eIF4H; Q15056; eIF4H fluorescence polarization binding assay; inhibition, % at 35 µM; 0.94% of 290,000 active; AID 2012;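 active = 50% or more with normal probe brightness, or confirmed in later tests; inconclusive = above 50% with abnormal brightness, or retests that disagree; inactive = below 50% or failed in later tests; about a fifth of its hits are not listed in these tables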;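 note: calls also rest on retests at 20 µM and on dose response follow-up; 0% = protein and probe with vehicle and 100% = probe without protein; strong numbers were not always called active; many hits fall short of the cut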
PABP polyA inh – PABP-poly(A) binding inhibition; PABP-poly(A) RNA binding, fluorescence polarization; inhibition, % at 35 µM; 1% of 290,000 active; AID 2014;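 active = 50% or more with normal probe brightness, or confirmed in later tests; inconclusive = above 50% with abnormal brightness, or retests that disagree; inactive = below 50% or failed in later tests; about a fifth of its hits are not listed in these tables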;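 note: calls also rest on retests at 20 µM and on dose response follow-up; controls were probe without protein and protein plus probe with vehicle; some compounds called inactive have numbers as strong as hits; many hits fall short of the cut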
Yeast UUG start – modulators of start codon recognition fidelity in yeast. S. cerevisiae UUG-firefly luciferase reporter, luminescence/redox ratio. activity score, % at 18.7 µM. 0.13% of 350,000 active;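 active = replicate mean at a twofold rise or more, about +100% in these data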;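 note: firefly luciferase made from a UUG start codon reports start codon fidelity; reporter light over untreated wells divided by growth signal over untreated wells; some hits fall short of that in this replicate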
CSC inhib – blocks cancer stem cells. cancer stem cell-like cells viability, luminescence. AID 2717. inhibition, % at 7.5 µM. 1.1% of 300,000 active;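 active = mean at 75% or more and at least half the replicates too; inconclusive = mean and replicates disagree; tested in HMLE shEcad cells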;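 note: 0% = median of negative and 100% = median of positive control wells; the first replicate is given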
Rce1 inhib – yeast Ras-converting enzyme inhibition; Q03530; yeast membranes, quenched prenylated peptide cleavage fluorescence; calls only; 0.27% of 290,000 active;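 active = fall in fluorescence gain of 50% or more versus controls, with final raw signal at or below 3038400; inconclusive = same 50% fall but final raw signal above 3038400; inactive = fall in fluorescence gain under 50%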;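 note: plate controls were neutral control wells for no effect and wells lacking membranes for full effect; tested at 10 µM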
Target sequence (Q03530 whole entry, looked up): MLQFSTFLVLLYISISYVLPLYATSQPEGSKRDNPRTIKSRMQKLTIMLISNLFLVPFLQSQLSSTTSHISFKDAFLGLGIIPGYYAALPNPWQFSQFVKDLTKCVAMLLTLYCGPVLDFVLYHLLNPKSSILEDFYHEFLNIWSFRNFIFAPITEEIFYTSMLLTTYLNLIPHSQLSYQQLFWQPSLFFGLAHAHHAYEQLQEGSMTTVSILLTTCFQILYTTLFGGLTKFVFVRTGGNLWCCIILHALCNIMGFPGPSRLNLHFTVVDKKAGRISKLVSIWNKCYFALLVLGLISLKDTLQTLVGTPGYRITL
MT1-MMP act inh – blocks activation of human MT1-MMP; P50281; HT1080 RFP-PRO-GFP cells, GFP/RFP ratio fluorescence, overnight; percent of plate control window, DMSO zero; GFP/RFP ratio change, % at 20 µM; 0.061% of 360,000 active;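 active = GFP/RFP ratio change of at least 30% with cell ATP level not reduced by more than half and red fluorescence within 50% of control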; note: strong numbers were not always called active
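Read-out: GFP/RFP fluorescence ratio; Test system: RFP-PRO-GFP reporter HT1080 cells; Compound dosing: single-point 20 µM compound, 1% DMSO; Times: overnight compound exposure at 37 °C.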
eIF4H FP inh retest – second read-out of eIF4H FP inh, no call of its own (marks repeat the call); inhibition, %; compound at 20 µM; confirmation average;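 mean of two retest wells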
PABP polyA inh retest – recorded beside PABP polyA inh, whose call it bears; inhibition, %; compound at 20 µM; confirmation repeats;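 mean of two retest wells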
MT1-MMP act inh RFP – also measured in MT1-MMP act inh; calls as there; RFP signal change, %; measured here: RFP expression control read;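 0 = vehicle wells; hits needed this value within 50% of zero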
The depositor's hits bear a star; i = inactive; ? = inconclusive; . = no result given; & = joins results of further samples; [ ] = remark or other dose. The list is partial; rates above refer to the full screens.

SMILES | Env fusion inh | eIF4H FP inh | PABP polyA inh | Yeast UUG start | CSC inhib | Rce1 inhib | MT1-MMP act inh | MT1-MMP act inh RFP | others
NC(Cc1ccc(F)cc1)c1csc(NC(=O)NC(c2ccccc2)c2ccccc2)n1 (centres undefined) | 6 | . | . | -9 | . | . | -17 | -13
Cc1cccn2c(CNC3CCCc4ccccc43)c(C(=O)N3CCCCC3)nc12 (centres undefined) | 23 | -4 | -12 | . | -16 | . | -2 | -1
COc1ccc(NC(=O)CSCC(=O)Nc2ccc(S(=O)(=O)N3CCOCC3)cc2)cc1 | -3 | . | . | -8 | . | . | -1 | 3
Cn1cc(CN2CCCC(CO)(Cc3ccccc3)C2)c2ccccc21 (centres undefined) | -27 | 1 | 1 | -9 | 19 | i | 1 | -1
CCc1nnc(NC(=O)CSc2nnc(CNC(=O)c3cc(OC)c(OC)c(OC)c3)o2)s1 | -2 | 6 | -7 | . | -2 | i | 2 | 6
CCCCNC(=S)Nc1ccc([N+](=O)[O-])cc1 | 31 | -3 | ? | -32 | 10 | i | -6 | -14
COc1ccc(S(=O)(=O)NCc2cccnc2)cc1OC | -155 | -9 | -6 | -8 | 1 | i | 2 | 7
Cc1ccsc1/C=C1\Oc2cc(OCC(=O)c3ccccc3)ccc2C1=O | 31 | 17 | -11 | . | 6 | i | -5 | 3
S=C(Nc1ccccc1)Nc1ccc(Cl)cn1 | . | -1 | 8 | . | -20 | i | -2 | -3
COc1ccc(S(=O)(=O)N(CCc2ccccc2)CC(=O)NC(C)C)cc1 | -7 | -14 | 28 | 22 | -11 | i | -3 | -5
Cc1nc2ccc(NC(=O)NCCCO)cc2s1 | . | -2 | 2 | -17 | -2 | i | 0 | 6
Cn1c(=O)[nH]c(=O)c2c1nc(Br)n2CCSc1nc2ccccc2o1 | -5 | -13 | 1 | -12 | . | i | 5 | 6
CCn1c(SCC(=O)NCc2ccc3c(c2)OCO3)nnc1-c1cccs1 | -5 | 2 | -3 | -10 | -7 | i | 4 | 3
CC(C(=O)NCc1ccccc1)N1C(=O)c2ccccc2C1=O (centres undefined) | -5 | 6 | 3 | -7 | . | i | -1 | 2
COc1ccc2oc(C(=O)OC(C)C(=O)N3C(C)CCCC3C)c(C)c2c1 (centres undefined) | 26 | . | . | . | 5 | . | 5 | -3
Cc1nc(-c2cccnc2)sc1C(=O)Nc1ccc(F)cc1F | 7 | 6 | -2 | -17 | -1 | i | 5 | -2
COc1ccc(NC(=O)CN2CCN(Cc3ccc4c(c3)OCO4)CC2)cc1OC | . | 0 | 13 | -13 | 6 | i | -2 | 1
COC(=O)CNC(=O)C1CCCN1C(=O)CNC(=O)OCc1ccccc1 (centres undefined) | 3 | 35 | 20 | . | -2 | i | 0 | 0
Cc1ccc(SCC(=O)NNC(=O)CNC(=O)c2ccc(Br)cc2)cc1 | 0 | . | . | . | -5 | . | 0 | 12
CCC(C)c1ccc(NC(=S)NCCn2cc(Br)cn2)cc1 (centres undefined) | 13 | -1 | 14 | -16 | 1 | i | 1 | -3
COC(=O)CNc1nc(Cl)nc(N2CCC(C)CC2)n1 | 1 | -5 | 10 | . | -7 | i | -2 | -1
CC(C)(C)C(=O)NC(=S)Nc1ccc(Cc2ccncc2)cc1 | 12 | -1 | 3 | -12 | 50 | i | -1 | -24
Cc1ccc(NC(=O)COc2ccc3oc4c(c3c2)CCCC4)nc1 | . | 2 | -11 | -14 | -4 | i | 8 | 10
O=[N+]([O-])c1cccc(-c2nc(-c3cccs3)c(-c3cccs3)[nH]2)c1 | -84 | -1 | -4 | -13 | . | i | -2 | -15
Cc1sc2nc(CN3CCOCC3)nc(N3CCC(C(N)=O)CC3)c2c1C | -44 | . | . | 286* | -9 | i | -8 | -5
O=[N+]([O-])c1ccc(/C=N\NS(=O)(=O)c2ccc(F)cc2)o1 | 10 | -6 | 8 | -11 | -1 | i | 2 | 3
Cn1nc(C(=O)N2CCN(c3ccc(F)cc3)CC2)c2c1-c1ccccc1S(=O)(=O)C2 | 1 | . | . | -11 | -17 | i | 1 | -2
CC(C)N(C(=O)CSc1nnnn1-c1ccc2c(c1)OCO2)C(C)C | 12 | -10 | -2 | . | -16 | i | -1 | -2
Cc1cc(C)cc(NC(=O)Cn2nnc(C(=O)NCc3ccccc3Cl)c2N)c1 | -7 | -9 | 0 | -9 | -2 | i | -3 | 0
CCCC(C)NC(=O)CSc1nnc2ccccn12 (centres undefined) | -5 | 1 | 5 | . | -6 | i | -2 | 0
COc1ccc2c(c1OC)C(=O)NC(C)=C(C(=O)OC(C)(C)C)C2O (centres undefined) | 12 | 0 | -1 | -9 | -22 | i | 1 | 0
CCn1c(Cc2ccccc2)nnc1SCC(=O)N1CCCC1=O | 4 | -4 | 1 | 5 | -14 | i | -2 | 1
COc1ccccc1NC(=O)COc1ccc(/C=N/NC(=O)CSCc2cc(C)cc(C)c2)cc1 | 12 | 15 | 75 | . | 43 | i | 3 | 3 | eIF4H FP inh retest=-15;PABP polyA inh retest=5
COc1ccc(C(=O)Nn2c(CC(C)C)nc3cc(Cl)ccc3c2=O)c(OC)c1 | -17 | -7 | 4 | -6 | -8 | i | -2 | -2
CCOC(=O)c1ccc(-c2ccc(/C=N/NC(=O)CN(c3ccccc3Br)S(C)(=O)=O)o2)cc1 | -33 | 1 | -4 | . | 41 | i | -9 | -11
COc1cccc(C(=O)Nc2ccc(NC(=O)c3ccco3)cn2)c1 | . | -7 | 1 | -9 | -2 | i | -2 | 8
O=C1C2C3C=CC(C3)C2C(=O)N1c1nc2ccccc2s1 (centres undefined) | . | -1 | 3 | -18 | -8 | i | 2 | 3
CCCN(CCC)S(=O)(=O)c1ccc(C)cc1 | 8 | -11 | -14 | -29 | -4 | i | 1 | 2
COc1ccc(CNC(=O)CNC(=O)c2c(C)nn(C)c2Cl)cc1 | -8 | 4 | 2 | . | -2 | i | 0 | 1
Cc1occc1-c1nnc(SCC(=O)N2CC(=O)Nc3ccccc32)n1CC(C)C | -45 | 4 | -1 | 1 | . | . | -5 | -4
O=C(Cc1cccs1)Nc1cccc([N+](=O)[O-])c1 | 11 | -3 | 16 | . | -6 | i | 1 | 2
CCCN(C(=O)c1cc(C)ccc1C)c1c(N)n(Cc2ccccc2)c(=O)[nH]c1=O | 6 | . | . | -1 | . | . | -1 | 0
COc1ccccc1NC(=O)C1C2C=CC3(CN(Cc4cccnc4)C(=O)C13)O2 (centres undefined) | 6 | 4 | 1 | -19 | -4 | i | 2 | 9
COc1cc(NC(=O)CN2C(=O)c3ccccc3S2(=O)=O)c(OC)cc1Cl | 2 | 0 | -10 | -12 | -4 | i | 2 | -1
CCCCN(C(=O)C1=NN(c2ccccc2)C(=O)CC1)c1c(N)n(CC(C)C)c(=O)[nH]c1=O | . | . | . | -9 | -3 | . | -1 | 0
COc1ccc([C@@H]2[C@@H]3C(=O)N(C(C)(C)C)C(=O)[C@@H]3[C@]3(CC(C)C)C(=O)N(c4cccc(F)c4)C(=O)N23)cc1 | 99* | . | . | -2 | -10 | i | -9 | -7
CCN1CCCC1CNCc1cc(OC)c(OC)c(OC)c1 (centres undefined) | . | -1 | 7 | 15 | -8 | i | -3 | 3
Cc1cc(C)c(C#N)c(N2CCN(c3ccccc3)CC2)n1 | -5 | -6 | 19 | -13 | 9 | i | -2 | 2
N#Cc1nc(-c2ccc(OCc3ccc(Cl)cc3)cc2)oc1N1CCC(C(N)=O)CC1 | . | 47 | 17 | -12 | -11 | i | 1 | -9
O=C1c2ccccc2S(=O)(=O)N1CC(O)Cn1ccc2ccccc21 (centres undefined) | . | 88* | 97* | . | . | i | -29 | 11 | eIF4H FP inh retest=85*;PABP polyA inh retest=87*
COc1cccc(OC)c1C(=O)Nc1ccccc1N1CCCC1 | 4 | 0 | 7 | -5 | -10 | i | -2 | 4
O=C(CSC1=NS(=O)(=O)c2ccccc2N1)c1ccccc1 | -19 | . | . | . | -2 | i | -1 | 1
O=C(N=C1SC2CS(=O)(=O)CC2N1c1ccc(Cl)cc1Cl)C1CCCO1 (centres undefined) | -8 | -10 | -8 | -8 | 25 | i | -3 | 1
CCN1CCN(CCCCSc2ccccc2)CC1 | . | -5 | 1 | . | 45 | i | . | .
CCOC(=O)N1CCN(S(=O)(=O)c2ccc(Br)cc2)CC1 | 10 | -4 | -4 | -6 | -4 | i | 0 | -3
O=C(C1=C[C@H](c2ccc(C(F)(F)F)cc2)C[C@H](OCc2ccc(CO)cc2)O1)N1CCN(Cc2ccccc2)CC1 | 7[16.7 µM] | 5 | 1 | 2&-9 | 5 | i | -2 | -6
Cc1ccc(NC(=O)CSc2nc3[nH]ncc3c(=O)[nH]2)cc1Cl | -15 | . | . | . | 10 | i | -2 | -6
O=C(C[n+]1cc(-c2ccc(Cl)c(Cl)c2)n2c1CCC2)OCc1ccccc1 | 26 | -7 | 9 | -30 | 6 | i | -5 | -1
CCN1C(=O)c2c(C)nc3ccccc3c2C1=O | . | -10 | 1 | . | . | i | 2 | -1
O=C1Nc2ccc(Br)cc2/C1=C/c1ccc(C(=O)O)cc1 | . | -3 | 20 | . | -1 | i | . | .

Gathered by group, those above with a cyano group
SMILES | Env fusion inh | eIF4H FP inh | PABP polyA inh | Yeast UUG start | CSC inhib | Rce1 inhib | MT1-MMP act inh | MT1-MMP act inh RFP | others
Cc1cc(C)c(C#N)c(N2CCN(c3ccccc3)CC2)n1 | -5 | -6 | 19 | -13 | 9 | i | -2 | 2
N#Cc1nc(-c2ccc(OCc3ccc(Cl)cc3)cc2)oc1N1CCC(C(N)=O)CC1 | . | 47 | 17 | -12 | -11 | i | 1 | -9

The listing continues:
SMILES | Env fusion inh | eIF4H FP inh | PABP polyA inh | Yeast UUG start | CSC inhib | Rce1 inhib | MT1-MMP act inh | MT1-MMP act inh RFP | others
COc1ccccc1NC(=O)OC(C)c1ccc(Cl)cc1 (centres undefined) | -4 | -1 | 5 | -18 | 11 | i | -1 | 1
O=C(CSc1ncnc2ccccc12)N1CCNC1=O | -17 | . | . | -24 | 8 | . | -3 | -1
CC1CCc2sc(C(=O)NCCCn3ccnc3)cc2C1 (centres undefined) | 9 | -2 | 2 | -21 | -1 | i | 5 | -3
CCOC(=O)C(C)On1c(SC(C)C(=O)OCC)nc2ccccc2c1=O (centres undefined) | -66 | -4 | 7 | 1 | -13 | i | 1 | 1
CSCCC(NS(=O)(=O)c1ccc(C)cc1)C(=O)NC1CCCCCC1 (centres undefined) | 31 | . | . | -8 | 2 | i | -5 | -3
COC(=O)C1C(=O)OC(C)(C)C1C(C)C(=O)c1ccc(C)cc1C (centres undefined) | -17 | -2 | 6 | . | -3 | i | -1 | 2
CCOc1ccc(NC(=O)CN(C)S(=O)(=O)c2cccc3cccnc23)cc1 | -18 | -11 | 11 | -13 | 6 | i | 1 | 2
COc1ccccc1C(=O)NCCC(=O)Nc1ncccc1C | -12 | 4 | 18 | -12 | -14 | i | -1 | 2
CCCCn1c(=O)[nH]c(=O)c2c1nc(-c1ccsc1)n2Cc1ccccc1 | . | 1 | -4 | -9 | -18 | i | 4 | -7
O=C1NC(=O)c2cc(NC(=O)c3cccc4ccccc34)ccc21 | 1 | -2 | -12 | -5 | -4 | i | 2 | 7
COc1ccc(-c2cc(CNS(=O)(=O)c3ccccc3)on2)cc1 | 1 | -2 | 8 | . | -3 | i | . | .
CCOCC(=O)Nc1nnc(COc2ccc(Cl)cc2)s1 | -4 | 4 | -6 | -11 | 7 | i | -1 | 2
